High-throughput results deposited in PubChem BioAssay by Fisher Drug Discovery Resource Center.
NPYLR7 ag = agonists of mosquito NPYLR7 receptor, primary screen, cell-based, Aedes aegypti, calcium fluorescence, mosquito biting behavior; 270,000 tested, 0.15% active; AID 1259423, 2018; HEK293T NPYLR7/Galpha15, GCaMP6s calcium fluorescence; activation, % at 10 µM; in the data active = activation above about 40%;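 also: 0% = vehicle and 100% = reference agonist at the receptor; some compounds past the cut are filed as inactive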
NPYLR7 ag max-min = second read-out of NPYLR7 ag, no call of its own (marks repeat the call); activation, %; measured here: Max-Min RFU normalised activation; some inactives read as strong as hits;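 span of the calcium signal over five minutes; 0% = vehicle and 100% = native peptide agonist; compound fluorescence can raise it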
Starred values were filed as active, the others as inactive; & = joins results of further samples. Not all compounds are listed; count on the stated rates, not on these rows.

SMILES | NPYLR7 ag | NPYLR7 ag max-min
Cc1ccccc1C(=O)Oc1c(S(=O)(=O)c2ccccc2)c(C)nn1C(C)(C)C | 0.8 | 29.4
CCOC(=O)C(=O)N(C)c1c(CC)nc2c(OCc3ccccc3C)cccn12 | -0.3 | 2.6
O=C(c1cccc([N+](=O)[O-])c1)N1CCc2ccccc21 | -1.2 | -2.9
CC1c2cccn2CCN1S(=O)(=O)c1ccc(Cl)c(Cl)c1 (stereo unspecified) | -0.7 | -1.1
CCc1ccc(NC(=O)C(=O)NCC2CCCN2S(=O)(=O)c2cc(C)ccc2C)cc1 (stereo unspecified) | 9.1 | 6.5
O=C(NCCN1CCCCC1)C1CCN(C(=O)c2cccnc2)CC1 | 0.0 | -4.3
CN(Cc1ccc(OC(F)F)cc1)C(=O)CN(C)c1ccccc1 | 1.6 | 0.7
Cc1nnc(SCC(=O)Nc2nc(-c3ccccc3)ns2)s1 | 0.9 | 8.3
COCCCN(Cc1csc(COc2cccc(C)c2C)n1)C(=O)c1ccc(F)cc1 | 9.8 | 15.0
CC(C)n1c(CCC(=O)O)ccc1-c1ccc(Br)cc1 | -18.1 | -23.9
FC(F)(F)c1cccc(CNc2nc(Cc3ccc(Cl)cc3)ns2)c1 | -6.6 | 3.2
COc1ccccc1NC(=O)N1CCC2(CC1)SCCN2C(=O)c1cccc([N+](=O)[O-])c1 | -14.9 | -11.0
O=C(COc1cc(=O)n2ccccc2n1)c1ccc(Cl)cc1 | -2.0 | 2.7
O=C(c1cc(F)ccc1F)C1CCCN(C(=O)C2=CCCC2)C1 (stereo unspecified) | 0.4 | 0.2
O=[N+]([O-])c1ccc2[nH]c(O)c(N=Nc3ccc(F)cc3F)c2c1 | -1.1 | -7.0
Cc1ccc(S(=O)(=O)Cc2noc([C@@H]3C[C@@H](O)CN3)n2)cc1 | -7.9 | -11.7
O=C1OCCC1Sc1nc(-c2ccccc2)c(-c2ccccc2)[nH]1 (stereo unspecified) | 1.5 | 1.0
CC(Sc1ncn(-c2ccccc2)n1)C(=O)Nc1ccc(N(C)C)cc1 (stereo unspecified) | 11.1 | 5.1
CC(=O)N1CCN(c2ccc(C(=O)N3CCCN(Cc4ccccc4)CC3)cn2)CC1c1ccccc1 (stereo unspecified) | -2.0 | -2.9
Cc1cc(C)cc(CS(=O)Cc2cccc(S(=O)(=O)N(C)C)c2)c1 (stereo unspecified) | 11.7 | 8.2
O=C(OCc1cc(-c2ccc3c(c2)OCCO3)on1)c1nc2ccccc2s1 | -0.8 | -2.5
CCOC(=O)c1cccnc1N1CCCC(CCC(=O)Nc2ccc(OC)cc2C)C1 (stereo unspecified) | 15.5 | 2.1
CC(=O)c1ccc(NC(=O)Oc2ccccc2)cc1 | 8.4 | 11.0
COCc1nc(N2CCN(C(=O)c3ccc(Br)cc3)CC2)c2c3c(sc2n1)CCCC3 | -8.7 | 2.4
Cn1ncc2c(NCc3cn[nH]c3-c3cccs3)nc(C(C)(C)C)nc21 | 2.5 | 2.4
(list continues)
SMILES | NPYLR7 ag | NPYLR7 ag max-min
COc1cccc(CNC(=O)Cn2c(=O)c(N3CCCCC3)nc3ccccc32)c1OC | -1.3 | -1.6
CC(/C=N\NC(=O)CNC(=O)C(c1ccccc1)c1ccccc1)=C\c1ccco1 | -1.4 | -3.3
N#Cc1cccc(CSc2nc(Oc3ccc4c(c3)OCO4)cc(-c3ccccc3)n2)c1 | 3.2 | 17.8
CCOc1ccc(CN2CCN(Cc3cccc(-n4cccn4)c3)CC2CCO)cc1 (stereo unspecified) | 5.7 | 0.5
O=C(NCC1CC1)c1nnc2n1CCN(C(=O)Cc1ccccc1)C2 | -1.8 | -3.4
Cc1ccc(CN(C)S(=O)(=O)c2cn(C)c(Cl)n2)cc1 | 0.2 | -1.9
c1ccc([C@H]2CN3CCSC3=N2)cc1 | -8.3&0.4&2.9 | -14.0&-4.2&-45.1
CC(C)N(CC(F)(F)F)C(=O)CNc1cc(CO)ccc1Cl | 8.3 | 6.6
Cc1ccc2nc(NC(=O)c3ccc(Br)cc3)sc2c1 | -1.2 | -7.3
Cc1cc(C(=O)NCCc2ccccc2Br)n(C)n1 | 3.2 | 2.4
CC(C(=O)N1CCCC1)N1CCN(C(=O)c2cc(C#N)c[nH]2)CC1 (stereo unspecified) | 1.5 | 2.4
COc1cccc(NC(=O)c2ccc(CSC)o2)c1 | 4.2 | 1.8
O=S(=O)(CCS(=O)(=O)c1ccccc1)OCC(F)(F)F | 5.6 | 3.6
Cc1cc(=O)c(C(=O)N(C)CC(=O)Nc2cccc(F)c2)nn1-c1ccccc1Cl | -1.0 | 3.3
COC(=O)CCCCC(=O)NCc1ccc(-c2ncc(-c3cccc(OC)c3)[nH]2)cc1 | -0.4 | -4.3
Cc1cc(C(=O)N2C3CCC(O)(CC3)[C@@H]2[C@@H](O)c2ccccc2)c(C)o1 | 7.2 | 17.6
CNC(=O)[C@H]1C[C@]2(CCCCN(C)C2=O)N(C(=O)CC2CCCC2)[C@H]1c1ccccc1 | 1.7 | 5.1
O=C(C1CN(C(=O)c2cc(Cl)c3c(c2)OCO3)c2ccccc2O1)N1CCCCC1 (stereo unspecified) | 5.0 | -0.7
Cc1cccc(C2CC2C(=O)Nc2ccn(CCCC#N)n2)c1 (stereo unspecified) | 10.3 | 21.4
CCN(CC)CCNC(=O)c1sc2nc(-c3ccccc3)cn2c1C | -1.6 | 0.0
CCCC(=O)N1CCC1(C)C(=O)NCc1ccc(SC)cc1 (stereo unspecified) | 3.2 | -0.7
CN1CCN(c2ncccc2CNC(=O)C2=Cc3ccccc3OC=C2)CC1 | 0.6 | 14.0
COCCN(CC(=O)N(CCc1c[nH]c2ccccc12)Cc1ccc(OC)c(OC)c1)S(=O)(=O)c1ccc(Cl)c([N+](=O)[O-])c1 | -16.2 | -5.9
CCNC(=O)C1(C)CCN1CCS(=O)(=O)c1ccc(C)cc1 (stereo unspecified) | -0.2 | 2.2
CC1(C(=O)NCc2cccc3ccccc23)CCN1Cc1ccc(-n2ccnc2)cc1 (stereo unspecified) | -4.5 | -7.9

Fetched one by one from the entries so far:
SMILES | NPYLR7 ag | NPYLR7 ag max-min
N#Cc1cccc(CSc2nc(Oc3ccc4c(c3)OCO4)cc(-c3ccccc3)n2)c1 | 3.2 | 17.8
COc1cccc(CNC(=O)Cn2c(=O)c(N3CCCCC3)nc3ccccc32)c1OC | -1.3 | -1.6
c1ccc([C@H]2CN3CCSC3=N2)cc1 | -8.3&0.4&2.9 | -14.0&-4.2&-45.1
COC(=O)CCCCC(=O)NCc1ccc(-c2ncc(-c3cccc(OC)c3)[nH]2)cc1 | -0.4 | -4.3
Cc1ccc(CN(C)S(=O)(=O)c2cn(C)c(Cl)n2)cc1 | 0.2 | -1.9
CC(/C=N\NC(=O)CNC(=O)C(c1ccccc1)c1ccccc1)=C\c1ccco1 | -1.4 | -3.3

Additional structures follow:
SMILES | NPYLR7 ag | NPYLR7 ag max-min
CCNC(=O)Nc1cn(C)c2ccccc12 | 2.3 | -1.9
O=C(CNC(=O)c1cccc(Cl)c1)Nc1ccc(-n2cncn2)nc1 | -2.7 | -2.6
O=C(c1ccc(CSc2ccc(Cl)cc2)cc1)N1C2CCC1CC(Oc1ccc(F)cc1F)C2 (stereo unspecified) | 8.8 | -0.2
Cc1nc(CNC(=O)CC2C(=O)NCCN2Cc2ccoc2)nc2c1CCCC2 (stereo unspecified) | 4.3 | 2.2
CN(C)S(=O)(=O)N1CCCC2(C1)C(=O)Nc1ccccc12 (stereo unspecified) | 1.8 | -3.0
Cc1ccc(-c2nc(CN3CCN(c4ncnc5ccccc45)CC3)c(C)o2)o1 | 27.2 | 14.2
N#Cc1cccc(CNCc2ccc(N3CCCC3)cc2)c1 | -0.5 | -1.9
COC(=O)C1=C(C)N=c2s/c(=C\c3ccc(OC(C)=O)cc3)c(=O)n2C1c1ccc(OC)cc1 (stereo unspecified) | -5.7 | -9.9
COc1cc(OC)nc(C(NC(=O)C2CCN(CCN3C(=O)c4ccccc4C3=O)CC2)c2ccc(F)cc2)n1 (stereo unspecified) | 4.7 | 4.5
CCn1ccnc1CN1CCN(C(C)C)C(CCO)C1 (stereo unspecified) | -0.1 | -0.4
CS(=O)(=O)c1ccccc1NCC(O)c1ccccc1F (stereo unspecified) | 0.8 | 0.1
Cc1cc(-n2nc(C)cc2C)n2nc(C)c(-c3ccc(Cl)cc3)c2n1 | -1.5 | -2.7
CN(CCC#N)C(=O)CN1CCn2c(nnc2C2CC2)C1 | 6.2 | 1.3
O=C(Nc1n[nH]c(C(F)(F)F)n1)c1cc(Br)ccc1F | 5.6 | 0.7
O=C(NCCCc1ccccc1)C1CCN(S(=O)(=O)c2ccccc2C(F)(F)F)CC1 | -1.2 | -4.9
CCOc1ccc(C2=CSC3=NCCN23)cc1Cl | 0.1 | -1.7
CCCCc1nc(CN2CCC(C(=O)NC)CC2)cs1 | -2.1 | -0.7
CCOC(=O)c1cc(-c2ccc(CC)cc2)n(C2CCN(C(=O)c3ccc4c(c3)OCO4)CC2)n1 | -12.8 | -12.4
COc1ccccc1CNc1nc2c(-c3ccccc3)nnn2c2ccccc12 | -9.2 | -15.7
CCOC(=O)c1cc(C(C)(C)C)n(C2CCN(C(=O)c3ccc(Cl)c(Cl)c3)CC2)n1 | 6.1 | 6.1
Cc1nc(SCC(=O)N2CCc3ccccc32)c2oc3ccccc3c2n1 | -8.3 | -11.5
Cn1nccc1C(=O)Nc1ccc(Cl)cc1 | -4.9 | -8.4
COc1cc(C2=NNC3SC=C(c4ccccc4)N3N2)ccc1O (stereo unspecified) | 2.7 | 5.4
Cc1ccn(CC(=O)N2CCCC(C(=O)c3ccc4c5c(cccc35)CC4)C2)n1 (stereo unspecified) | 6.4&1.9 | 4.4&-1.1
CCOc1ccc(CC(=O)NCCc2cc3ccc(OC)cc3[nH]c2=O)cc1 | 8.0 | 8.9

Of the compounds above, these contain an NH in an aromatic ring.
SMILES | NPYLR7 ag | NPYLR7 ag max-min
O=[N+]([O-])c1ccc2[nH]c(O)c(N=Nc3ccc(F)cc3F)c2c1 | -1.1 | -7.0
O=C1OCCC1Sc1nc(-c2ccccc2)c(-c2ccccc2)[nH]1 (stereo unspecified) | 1.5 | 1.0
Cn1ncc2c(NCc3cn[nH]c3-c3cccs3)nc(C(C)(C)C)nc21 | 2.5 | 2.4
CC(C(=O)N1CCCC1)N1CCN(C(=O)c2cc(C#N)c[nH]2)CC1 (stereo unspecified) | 1.5 | 2.4
COC(=O)CCCCC(=O)NCc1ccc(-c2ncc(-c3cccc(OC)c3)[nH]2)cc1 | -0.4 | -4.3
COCCN(CC(=O)N(CCc1c[nH]c2ccccc12)Cc1ccc(OC)c(OC)c1)S(=O)(=O)c1ccc(Cl)c([N+](=O)[O-])c1 | -16.2 | -5.9
O=C(Nc1n[nH]c(C(F)(F)F)n1)c1cc(Br)ccc1F | 5.6 | 0.7
CCOc1ccc(CC(=O)NCCc2cc3ccc(OC)cc3[nH]c2=O)cc1 | 8.0 | 8.9

Carrying on:
SMILES | NPYLR7 ag | NPYLR7 ag max-min
CN1CCC(OC(c2ccccc2)c2ccccc2)CC1 | -3.4&-2.7&2.1 | -9.7&-7.9&-3.7
O=C(NCCn1ccnc1)C1(Oc2ccc(Cl)cc2)CCNCC1 | -16.8 | -16.2
COCCNC(=O)C1(C)CCCN(CCC(=O)c2ccc(F)cc2)C1 (stereo unspecified) | 9.8 | 6.5
Cc1nn(C)c(Cl)c1-c1c(-c2ccccc2)ncn1C[C@H]1CCCN1 | -8.5 | -11.0
Cc1nn2c(=O)cc(CN(Cc3cc4c(s3)CCC4)C(C)C)nc2s1 | -0.7 | 11.6
CCOC(=O)[C@H]1C[C@]2(CCCCN(CCOC)C2=O)N(C(=O)c2ccc(F)cc2)[C@H]1c1ccco1 | 2.0 | 1.6
COc1ccc(-c2cc(N)n(-c3ccc(C(=O)N4CCC(O)(Cc5ccccc5)CC4)cc3)n2)cc1 | -7.8 | -10.8
CCC(C(=O)Nc1c(C(=O)Nc2ccc([N+](=O)[O-])cc2)oc2ccccc12)c1ccccc1 (stereo unspecified) | 4.2 | 4.0
CC(C)(C)c1csc(CN2CCN(CC(=O)Nc3nc4ccccc4s3)CC2)n1 | -17.8 | -24.4
COc1ccc(C)c2sc(N(CCCN(C)C)C(=O)CS(=O)(=O)c3ccc(C)cc3)nc12 | 1.1 | -3.1
COc1cc(N(C)CCc2ccncc2)ncn1 | -5.8 | -8.9
COc1ccccc1-c1cc(C(=O)N2CCN(C/C=C/c3ccccc3)CC2)n2nc(-c3ccc(Cl)cc3)cc2n1 | 12.9 | 15.4
CC(=O)Nc1cncc(-c2ccc(F)c(Cl)c2)n1 | -1.0 | -2.5
CCCCc1nc2ccccc2n1CC(O)c1ccccc1F (stereo unspecified) | 9.8 | 3.6
COc1ccccc1NC(=O)C1CCCCC1C(=O)N1CCC(C#N)(c2ccccc2)CC1 (stereo unspecified) | -7.7 | -15.4
COc1cc(/C=C2\SC(=S)N(C(CC(=O)O)C(=O)O)C2=O)ccc1O (stereo unspecified) | 67.7* | 56.9*

Entries of single compounds, looked up by structure. Screens in order: NPYLR7 ag	NPYLR7 ag max-min
CN1CCC(OC(c2ccccc2)c2ccccc2)CC1 as listed: -3.4&-2.7&2.1	-9.7&-7.9&-3.7
CC(=O)Nc1cncc(-c2ccc(F)c(Cl)c2)n1 as listed: -1.0	-2.5
Cc1nn(C)c(Cl)c1-c1c(-c2ccccc2)ncn1C[C@H]1CCCN1 as listed: -8.5	-11.0
CCC(C(=O)Nc1c(C(=O)Nc2ccc([N+](=O)[O-])cc2)oc2ccccc12)c1ccccc1 (stereo unspecified) as listed: 4.2	4.0
